Source: PubChem
FEN1 inh = qHTS Assay for the Inhibitors of Human Flap endonuclease 1 (FEN1). P39748. Recombinant FEN1 flap cleavage, fluorescence, 15 min. Potency, µM (top dose mostly 114 µM), inactives show at the highest dose activity change, negative = inhibition, actives largely listed as inhibitors. 0.35% of 390,000 active. AID 588795, 2011; note: nearly all actives have a fitted effect of over 65% in size
Target sequence (P39748 whole entry, looked up): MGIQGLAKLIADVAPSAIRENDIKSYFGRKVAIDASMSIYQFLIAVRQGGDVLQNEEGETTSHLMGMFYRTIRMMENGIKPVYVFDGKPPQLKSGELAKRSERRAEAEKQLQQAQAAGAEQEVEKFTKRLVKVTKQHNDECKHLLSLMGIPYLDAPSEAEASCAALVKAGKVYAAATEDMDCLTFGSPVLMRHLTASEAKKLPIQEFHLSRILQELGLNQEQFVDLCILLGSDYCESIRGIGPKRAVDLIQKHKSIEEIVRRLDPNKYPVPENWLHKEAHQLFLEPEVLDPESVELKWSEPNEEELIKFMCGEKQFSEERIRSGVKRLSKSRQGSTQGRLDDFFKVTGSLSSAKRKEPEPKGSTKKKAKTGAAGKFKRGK
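Concentration–response screening of FEN1 (10 nM): 15 min compound preincubation at room temperature, reaction started with 50 nM substrate and read at 0 and 15 min. Corrected, normalized data were fitted by a four-parameter Hill equation.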
TDP1 cell CPT = qHTS for Inhibitors of human tyrosyl-DNA phosphodiesterase 1 (TDP1): qHTS in cells in presence of CPT; chicken DT40 Tdp1-/-;hTDP1 cells + 20 nM CPT, ATP luminescence, 48 h; Potency, µM (highest dose often 46.2 µM), for the others: at the top dose activity change, negative = growth inhibition, usual class: inhibitors; 12% of 420,000 active; AID 686979, 2013; note: nearly all actives have a fitted effect of over 55% in size
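Chicken DT40 Tdp1-/- cells complemented with human TDP1, 400 cells/well, exposed to compounds plus 20 nM camptothecin for at least 48 h at 37 C; viability read as ATP content by CellTiter-Glo luminescence.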
* hit, by the source's call; ? = inconclusive; · = no result given; [ ] = another dose, or the depositor's remark. Calls come from the whole dose curve; as a rule, active = well fitted curve in the direction sought with a large enough effect; inconclusive = small, poorly fitted or top-dose-only effect, or another doubt; inactive = no such curve, though single readings can be large; an effect the other way counts as inactive or inconclusive. % is set by controls: 0 for no effect and ±100 for the full control effect; potency is the fitted concentration of half-maximal effect.

Below each SMILES – FEN1 inh	TDP1 cell CPT
- CCOc1ccc(C(=O)NCCN(C)C)cc1
  -8%	-14%
- Cc1nc(NC(=O)C2CCCCC2C(=O)O)sc1C (stereo not given)
  -4%	-15%
- CCOc1cc(N2CCOCC2)c(OCC)cc1NC(=O)c1nc2nc(C)cc(C)n2n1
  -7%	?
- CCNC(=O)CC1SC(=Nc2ccccc2C)N(C)C1=O (stereo not given)
  5%	6%
- CCCOc1ccccc1Nc1nnc(C)c(=O)[nH]1
  8%	-18%
- Cc1ccc(C(=O)OCN2C(=O)c3ccccc3C2=O)c(O)c1
  -1%	7%
- O=C(NC(=O)c1cccc(Cl)c1)OC[C@@H]1CCCN2CCCCC12 (stereo not given in full)
  0%	-14%
- CC(C)CCNC(=O)c1onc(CSc2ccc(F)c(F)c2)c1C(=O)NCCC(C)C
  -8%	?
- CCC(C)(C)NC(=O)C(c1ccc(O)cc1)N(CCOC)C(=O)CCC(=O)Nc1nccs1 (stereo not given)
  -8%	0%
- O=C(COc1ccccc1)Nc1c(C(=O)N2CCC(N3CCCCC3)CC2)oc2ccccc12
  12%	?
- O=C(NN1CCOCC1)c1ccccc1Br
  -6%	-6%
- COc1ccccc1-c1nc2ccc(Cl)cc2c(=O)n1O
  17%	7%
- CCC1(c2cccc(Cl)c2)NC(=O)N(Cc2cc(C(=O)OC)c(C)o2)C1=O (stereo not given)
  -9%	26µM*
- Cc1cc(C(=O)CSc2nnnn2C)c(C)n1-c1ccc2c(c1)OCCO2
  -17%	?
- N#CCCN(C(=O)COC(=O)c1ccc2c(c1)OCO2)c1ccccc1
  2%	7%
- O=C(O)C(NC(=O)C1CCCN1C(=O)OCc1ccccc1)c1ccccc1 (stereo not given)
  -12%	4%
- CC(C)n1cc(CN2CCN(CCc3ccccc3)C(CCO)C2)cn1 (stereo not given)
  6%	-8%
- CCC(C(=O)Nc1ccc2c(c1)OCCO2)n1c(=O)[nH]c2ccccc2c1=O (stereo not given)
  16%	-13%
- CCN(CC(=O)Nc1cc(OC)ccc1OC)Cc1nc2ccccc2c(=O)[nH]1
  2%	1%
- CCOC(=O)C(C#N)C(c1cccnc1)c1c(C)[nH][nH]c1=O (stereo not given)
  -7%	-21%
- Cc1cc(C)cc(NC(=O)Cn2c(C(F)(F)F)nc3ccccc32)c1
  -15%	-24%
- CC(=O)N1CCN(C(=O)c2ccc3c(c2)OCCO3)CC1
  10%	8%
- Cc1noc(C(=O)Nc2ccc3c(c2)OCO3)c1Cl
  -17%	2%
- CC1=Nn2c(nnc2-c2cc(-c3ccccc3)n[nH]2)SC1
  43%[activator]	-14%
- CCOC(=O)c1c(C)[nH]c(O)c1C=Nc1ccc(Cl)cc1
  -14%	?
- COc1ccc(N2CCSC2C(=O)NN)cc1 (stereo not given)
  1%	-16%
- CCCCc1cc2c(cc1NC(=O)CN1CCCCC1)OCCO2
  -6%	-27%
- CCC(C)NC(=O)CS(=O)(=O)Cc1nc(-c2cccc(OC)c2)oc1C (stereo not given)
  -3%	3%
- Cc1cc(C)c2cc(CN(CCO)Cc3nnnn3Cc3ccccc3)c(=O)[nH]c2c1
  8%	?
- O=C(ON=C1CCN(S(=O)(=O)c2ccccc2)CC1)c1ccc(F)cc1
  -17%	-24%

Of the compounds above, these have a cyano group:
Below each SMILES – FEN1 inh	TDP1 cell CPT
- N#CCCN(C(=O)COC(=O)c1ccc2c(c1)OCO2)c1ccccc1
  2%	7%
- CCOC(=O)C(C#N)C(c1cccnc1)c1c(C)[nH][nH]c1=O (stereo not given)
  -7%	-21%

The listing continues.
Below each SMILES – FEN1 inh	TDP1 cell CPT
- C/C(=N\NC(=O)c1nc(C)cc(C)n1)c1ccccc1
  -7%	11%
- O=C(Nc1ccc(OC(F)F)c(Cl)c1)c1cccc(OC(F)F)c1
  -19%	?
- O=C(/C=C/c1ccccc1)OCCCCN=C1NS(=O)(=O)c2ccccc21
  1%	9.2µM*
- CCc1ccc(CCC(=O)Nc2nnc(CC)s2)o1
  1%	-25%
- COC(=O)c1cccc(NC(=O)Nc2ccc(Cl)c(Cl)c2)c1
  4%	18µM*
- CN(C)/C=N/c1ncn(-c2ncc(C(F)(F)F)cc2Cl)n1
  0%	25%
- CCCN(CC#CC(O)(c1ccccc1)c1cccnc1)CCC (stereo not given)
  4%	-17%
- COc1ccccc1CNCC(=O)Nc1ccc(N2CCOCC2)cc1
  -3%	?
- COc1ccc(C(CNC(=O)c2ccc(S(=O)(=O)N3CCOCC3)cc2)N2CCCCC2)cc1 (stereo not given)
  -5%	-6%
- Cc1cc(C)n2nc(C)c(Br)c2n1
  2%	18%
- COc1ccnc(Oc2ccc(F)cc2)c1C(=O)N/C=N/OCc1cccc(F)c1
  6%	-8%
- Cc1cccc(NC(=O)c2sc3nc(-c4ccccc4)cn3c2C)c1C
  11%	0.52µM*
- COc1ccc(CCNCC(O)COc2cccc(Br)c2)cc1 (stereo not given)
  12%	?
- O=C(C1CC1)N1CCc2cc(Br)cc(S(=O)(=O)Nc3ccc(F)c(F)c3)c21
  12%	23µM*
- O=c1[nH]c(SCc2ccc([N+](=O)[O-])cc2)nc2[nH]ncc12
  11%	-9%
- O=C(NC1CCCCCC1)c1ccc(CS(=O)Cc2cccc(Cl)c2)o1 (stereo not given)
  -12%	?
- Cc1c(Cl)ccc(S(=O)(=O)Nc2cccnc2)c1Cl
  0%	-11%
- CC(=O)NC(CC(=O)NC(C)c1ccc(Cl)cc1Cl)c1ccccc1 (stereo not given)
  -23%	13%
- Cc1cc(OCC(=O)N(C)c2c(N)n(Cc3ccccc3)c(=O)[nH]c2=O)c(C(C)C)cc1Cl
  14%	?
- CCCCNC(=S)NNC(=O)c1ccc(Br)o1
  -1%	?
- Cc1ccnc(SCc2cc(=O)c(OC(=O)c3ccco3)co2)n1
  -4%	-1%
- c1ccc(CNC2=NCCCCC2)cc1
  -5%	-8%
- Cc1cccc(C)c1NC(=O)C(c1ccc([N+](=O)[O-])cc1)N(C)C(=O)c1ccccn1 (stereo not given)
  -1%	6.5µM*
- Cc1[nH]c2ccc(C(=O)NC3CCC(C)CC3)cc2c1C (stereo not given)
  -2%	?
- Cc1ccc(-n2nnnc2SCC(=O)c2cc(C)n(CC3CCCO3)c2C)cc1 (stereo not given)
  0%	-28%
- CN(C)CCCNC(=O)c1ccc(Cl)c(S(=O)(=O)N2CCCCCC2)c1
  7%	10µM*
- CNC(=O)c1cc(C)c(-c2ccccc2)s1
  -2%	?
- Cc1c(NC(=O)c2cc(-c3ccccc3)nc3ccccc23)c(=O)n(-c2ccccc2)n1C
  7%	?
- Cc1cc2cc(CN3C(=O)c4ccccc4C3=O)ccc2n1C
  0%	-17%
- COc1cc(NC(=O)c2cc(C)nc3ccccc23)cc(OC)c1OC
  4%	-16%

compound	FEN1 inh	TDP1 cell CPT
Cc1cc(C)cc(N(C(=O)c2csnn2)C(C(=O)NC(C)(C)C)c2cccnc2)c1 (stereo not given)	-5%	3%
Cc1occc1-c1nnc(SCC(N)=O)n1Cc1ccccc1	0%	1%
CN(Cc1ccccc1)C(=O)Cc1ccccc1	18%	8%
COc1ccccc1C(=O)CSc1ccccn1	6%	6%
Cc1cc(N2CCCC2=O)ccc1S(=O)(=O)NCCOc1ccccc1	1%	18µM*
COc1ccc(NC(=O)c2nc(SC)ncc2Cl)cc1	-10%	-14%
CSc1nc2c(ccc3ccccc32)o1	-17%	9%
CNC(=O)CN(c1cc(C)ccc1C)S(C)(=O)=O	4%	-4%
Cc1ccc(C2C3=C(CC(C)(C)CC3=O)N=C3c4ccccc4C(=O)C32)cc1 (stereo not given)	-23%	?
CNC(=O)CSc1cn(CC(=O)N(C(C)C)C(C)C)c2ccccc12	0%	1%

4 of these compounds, reformatted.
Compound: CSc1nc2c(ccc3ccccc32)o1
  FEN1 inh = -17%	TDP1 cell CPT = 9%

Compound: Cc1occc1-c1nnc(SCC(N)=O)n1Cc1ccccc1
  FEN1 inh = 0%	TDP1 cell CPT = 1%

Compound: CNC(=O)CSc1cn(CC(=O)N(C(C)C)C(C)C)c2ccccc12
  FEN1 inh = 0%	TDP1 cell CPT = 1%

Compound: COc1ccc(NC(=O)c2nc(SC)ncc2Cl)cc1
  FEN1 inh = -10%	TDP1 cell CPT = -14%

Remaining list, next part.
compound	FEN1 inh	TDP1 cell CPT
COc1ccc(CCNC(=O)C(=O)Nc2ccc(C)cc2)cc1OC	15%	·
CCOc1ccccc1NC(=O)Nn1cnnc1	-11%	-3%
Cc1ccc2nc(NC(=O)C3CCCN(S(=O)(=O)c4cccc5nsnc45)C3)sc2c1 (stereo not given)	-18%	?
CCOC(=O)c1ccc(NC(=O)CN2C(=O)CSC(C)C2=O)cc1 (stereo not given)	-3%	9%
C[C@@H]1C=C(C(=O)N2CCOCC2)O[C@H](OCc2ccc(CO)cc2)C1	3%	-3%
O=C(COC(=O)c1cccc(Cl)c1Cl)NCc1cccs1	-6%	-9%
COc1cc(NC(=O)c2c(F)c(F)c(OC)c(F)c2F)ccc1NC(=O)c1cccs1	-6%	21µM*
COc1ccc(Br)cc1CN1CCN(C(=O)c2cccc(F)c2)CC1	-11%	-28%
CCc1ccc(S(=O)(=O)N2c3ccc(C)cc3C3CN(C)CCC32)cc1 (stereo not given)	-6%	?
COC(=O)c1ccc2[nH]c(C)c(CN3CCCC3)c(=O)c2c1	2%	0%

compound	FEN1 inh	TDP1 cell CPT
Cc1ccc(S(=O)(=O)Nc2cc(C)cn(Cc3ccc(F)cc3)c2=O)cc1	1%	26µM*
CCCCN(CC)CCCNC(=O)Nc1sc2nc3n(c(=O)c2c1C)CCC(C)CC3 (stereo not given)	-5%	?
COc1ccc(CCNC(=O)C(C)SCc2ccccc2)cc1 (stereo not given)	-7%	2%
Cc1cc(C)cc(OCC(=O)N(C)CC(=O)Nc2ccc(Cl)c(C(F)(F)F)c2)c1	-20%	?
COc1ccc(Nc2nc(=O)c3cc([N+](=O)[O-])ccc3s2)cc1	-15%	1%
CC1CCCCC1NC(=O)COC(=O)CNC(=O)c1cccc(F)c1 (stereo not given)	-8%	13%
O=C(NN1C(=O)C2CCCCC2C1=O)c1ccco1 (stereo not given)	-16%	4%
O=C(CN1c2ccccc2S(=O)(=O)c2ccccc21)Nc1cccc(C(F)(F)F)c1	0%	?
O=C(COc1ccccc1[N+](=O)[O-])Nc1cc(Cl)ccc1C(=O)O	-1%	-12%
COc1ccccc1/C=C/C(=O)OCC(=O)Nc1cc(C(F)(F)F)ccc1N1CCOCC1	-17%	4.1µM*

compound	FEN1 inh	TDP1 cell CPT
CCOc1ccccc1Oc1ccc(C(F)(F)F)cn1	3%	-16%
O=C1COc2ccc(C(=O)COC(=O)c3ccc([N+](=O)[O-])cc3Cl)cc2N1	7%	-7%
O=C(Cn1cnc2ccccc2c1=O)N1CCOCC1	-7%	12%
c1ccc2[nH]c(CCCc3nc4ccccc4[nH]3)nc2c1	-1%	0%
Cc1ccc(CN(Cc2cc3cccc(C)c3[nH]c2=O)C(=O)N(C)C)cc1	-5%	-13%
Cc1ccsc1C(=O)NNC(=O)C1CC=CCC1C(=O)O (stereo not given)	0%	-14%
COc1cccc(OCCNC(=O)c2ccc(C)cc2)c1	-2%	14%
CCCc1cc(C(=O)N2CCN(c3ccccc3C)CC2)cs1	-17%	-27%
Cc1cccnc1NC(=O)c1sc2ccccc2c1Cl	18%	-17%
O=c1[nH]ncc(N/N=C\c2ccc(O)cc2O)c1Cl	-4%	-11%

compound	FEN1 inh	TDP1 cell CPT
COc1ccc(OC)c(CNC(=O)NCc2noc3ccc(C)cc23)c1	43%[activator]	-2%
CCN1CCN(Cc2ccc(NC(=O)c3cc(NC(=O)c4ccc5n[nH]nc5c4)cc(OC)c3)cc2C(F)(F)F)CC1	-2%	12%
COc1cc(/C=C/CN2CCN(CCC(C)C)C(CCO)C2)ccc1O (stereo not given)	-2%	1%
CCOC(=O)C1CCN(C(=O)COC(=O)CNC(=O)c2sc3ccccc3c2Cl)CC1	-17%	-13%
Cc1ccc(N2CC(C(=O)NNC(=O)c3ccc(F)cc3)CC2=O)cc1 (stereo not given)	3%	-3%
Cc1ccc(CNC(=O)c2ccc3c(c2)N(Cc2ccccc2)C(=O)c2ccccc2S3(=O)=O)cc1	3%	-21%
COCCN(C(=O)COC(=O)CCOc1ccccc1C)c1c(N)n(Cc2ccccc2)c(=O)[nH]c1=O	4%	-10%
CCCCCOc1c(Cl)cc(C(=O)N(Cc2ccc(C)o2)C2CCS(=O)(=O)C2)cc1Cl (stereo not given)	-10%	18µM*
CCOc1ccc(NC(=O)c2noc3c2CSc2ccccc2-3)cc1	-9%	-9%
Cc1cccc(OCC(=O)N(C)CCc2ccccn2)c1	2%	-14%
O=S(=O)(c1ccc(Oc2ccc(S(=O)(=O)N3CCOCC3)cc2)cc1)N1CCOCC1	-1%	?
COC(=O)c1sc(S(=O)(=O)Nc2ccc(C)c(C)c2)c(C(=O)OC)c1C	-4%	?

A portion of the library; most or all hits stand in other tables.
